TRPV1 PAM: HTS Assay for Compounds that Act as Potentiators of the Vanilloid Receptor 1. Transient receptor potential cation channel subfamily V member 1 (Homo sapiens), Q8NER1. TRPV1-expressing cells, Fluo-8 calcium influx, capsaicin EC20 potentiation; host cell line not named in the record; control for the full effect not named in the record. potentiation, % at 8.33 µM. actives 0.02% (n = 320,000); active means potentiation above 80%; inconclusive means 30% to 80%; inactive means below 30%; also: 0% is about no effect
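Cells expressing TRPV1 were dye-loaded with Fluo-8 and read kinetically: 10 s baseline, 3 min after compound (agonist portion), then 2 min after EC20 capsaicin (allosteric enhancer portion). Calcium-bound dye fluorescence at 480/520 nm.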
CtBP-E1A blk: qHTS Assay for Inhibitors of the CtBP/E1A Interaction. AlphaScreen GST-E1A/His-CtBP binding, 1536-well; active compounds read low; control for the full effect not named in the record. activity change, % (test concentration not listed). actives 0.49% (n = 340,000); in the data active means activity change below about -65%; inconclusive means about -30% to -65%; inactive means above about -30%; also: % is scaled to controls: 0 for no effect and ±100 for the full control effect
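GST-E1A and His-tagged CtBP (125 nM each as 5X stock) were preincubated with pin-transferred compound for 2 h at 37 °C in the dark, then glutathione donor and nickel acceptor beads were added for 1 h before AlphaScreen reading.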
D2 PAM: Beta-Arrestin HTS for Positive Allosteric Modulators of the Human D2 Dopamine Receptor: Potentiators; D(2) dopamine receptor (Homo sapiens), P14416; DiscoveRx D2 beta-arrestin cells, luminescence, 90 min; 100% = 57 uM dopamine signal; potentiation, % (no concentration beside the values); actives 0.23% (n = 360,000); AID 624464, 2012; active = potentiation of 50% or more; inconclusive = 30% to 50%; inactive = 30% or less;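 also: compound concentration not given in the record; tested on top of an EC20 dose of dopamine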
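PathHunter D2 cells, attached overnight at 37 deg C, received compound in DMSO plus dopamine at EC20 (50 nM final) for 90 min at 37 deg C. Beta-arrestin recruitment was read as luminescence after 1 h with detection reagent at ambient temperature.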
D2 ag: Beta-Arrestin HTS for Positive Allosteric Modulators of the Human D2 Dopamine Receptor: Agonists; actives 0.084% (n = 360,000); AID 624465, 2012; DiscoveRx PathHunter D2 beta-arrestin, luminescence, 90 min; 100% = 57 uM dopamine signal; activation, % (no concentration beside the values); in the data active = activation above about 40%; inconclusive = about 15% to 40%; inactive = below about 15%; also: compound concentration not given in the record; the text of the record calls up to 30% inactive
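DiscoveRx PathHunter D2 beta-arrestin cells (2,100/well) attached overnight, then compound-stimulated 90 min at 37 C in HBSS/10 mM HEPES/0.1% Tween-20 buffer; beta-galactosidase complementation read by luminescence after 1 h at ambient temperature. Dopamine 57 uM final (EC100) as control.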
PINK1 modulator: A Quantitative High throughput Screen to Identify Chemical Modulators of PINK1 Expression | AID 624263, 2012 | actives 0.2% (n = 410,000) | PINK1 immunofluorescence, high-content cytometry, 24 h | Potency, µM (series often up to 76.6 µM), inactives show at the highest dose activation (PINK1 increase), hits mostly activators; active = well fitted activation curve with a large enough effect; inconclusive = small, poorly fitted or top-dose-only effect; inactive = flat fitted curve, though single readings scatter; cell line not stated here;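 also: potency is read from the fitted curve at half-maximal effect; % of control where 0% means no effect; nearly all actives have a fitted effect of over 65% in size; a mitochondrial uncoupler was the plate control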
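Stable cell line treated 24 h with compounds at 5 concentrations (CCCP controls), then fixed and immunostained for PINK1 plus nuclear and cell stains; PINK1 immunofluorescence quantified by laser-scanning microplate cytometry.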
Six1-Eya2 inh: qHTS Assay for Inhibitors of the Six1/Eya2 Interaction | AID 651725, 2012 | AlphaScreen GST-Six1/His-Eya2 binding, biochemical; active compounds read low; control for the full effect not named in the record | activity change, % (test concentration not listed) | Homeobox protein SIX1 (Homo sapiens) + Protein phosphatase EYA2 (Homo sapiens), … | actives 0.56% (n = 360,000); in the data active = activity change below about -65%; inconclusive = about -30% to -65%; inactive = above about -30%; also: % is scaled to controls: 0 for no effect and ±100 for the full control effect
Target sequence (O00167 whole entry, looked up): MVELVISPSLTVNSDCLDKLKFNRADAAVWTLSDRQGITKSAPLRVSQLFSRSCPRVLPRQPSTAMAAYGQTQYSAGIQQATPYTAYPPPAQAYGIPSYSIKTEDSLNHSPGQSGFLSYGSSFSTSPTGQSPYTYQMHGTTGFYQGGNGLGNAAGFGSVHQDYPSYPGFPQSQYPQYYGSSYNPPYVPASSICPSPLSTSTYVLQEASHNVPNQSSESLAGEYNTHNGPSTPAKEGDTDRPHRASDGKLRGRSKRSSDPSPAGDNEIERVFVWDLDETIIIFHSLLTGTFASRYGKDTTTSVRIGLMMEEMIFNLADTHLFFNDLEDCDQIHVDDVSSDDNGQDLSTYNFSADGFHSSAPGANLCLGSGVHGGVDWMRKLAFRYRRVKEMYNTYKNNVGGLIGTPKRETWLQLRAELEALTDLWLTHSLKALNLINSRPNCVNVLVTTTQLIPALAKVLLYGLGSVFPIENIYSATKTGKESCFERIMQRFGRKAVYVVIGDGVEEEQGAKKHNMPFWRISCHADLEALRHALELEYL
Target sequence (Q15475 whole entry, looked up): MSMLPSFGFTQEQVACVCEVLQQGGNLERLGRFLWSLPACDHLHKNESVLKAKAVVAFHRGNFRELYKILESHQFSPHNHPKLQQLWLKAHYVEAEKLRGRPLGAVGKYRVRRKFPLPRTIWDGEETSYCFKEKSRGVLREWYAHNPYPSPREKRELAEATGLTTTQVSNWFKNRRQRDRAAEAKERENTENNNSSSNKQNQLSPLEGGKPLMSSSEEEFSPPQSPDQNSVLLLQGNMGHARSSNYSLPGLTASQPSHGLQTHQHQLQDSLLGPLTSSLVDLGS
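Six1/Eya2 binding was read as AlphaScreen signal after compounds were pinned into GST-Six1 plus His-tagged Eya2 (5X stock 250/500 nM) in pH 8.0 Tris/NaCl/TCEP buffer, beads added, then incubated 1 h, 37 C, dark.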
Sfp inh: qHTS Assay for Inhibitors of Bacillus subtilis Sfp phosphopantetheinyl transferase (PPTase) | 4'-phosphopantetheinyl transferase ffp (Bacillus subtilis), Q9F4F7 | Biochemical Sfp PPTase activity, qHTS | Potency, µM, inactives show max response, negative = inhibition, usual class: inhibitors | actives 3.5% (n = 310,000) | AID 1490, 2009; active = well fitted inhibition curve with a large enough effect; inconclusive = small, poorly fitted or top-dose-only effect, or another doubt; inactive = no such curve, though single readings can be large or run the other way;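 also: the enzyme is Sfp with the accession as filed and its product quenches rhodamine fluorescence; potency is read from the fitted curve at half-maximal effect; 0% = enzyme reaction without inhibitor and -100% = no enzyme wells; top concentration of the series not given in the record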
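Compounds were incubated with enzyme (final 15 nM) for 15 min at room temperature before substrate addition started the reaction. Fluorescence at 525 nm excitation, 598 nm emission was recorded immediately and after 30 minutes.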
Starred values were filed as active, the others as inactive; u = inconclusive; x = not tested or not shown; [ ] = dose if it differs, or a comment.

SMILES	TRPV1 PAM	CtBP-E1A blk	D2 PAM	D2 ag	PINK1 modulator	Six1-Eya2 inh	Sfp inh
CCc1ccc(OCCn2ccnc2)cc1	5	2	1	4.2	3.4%	-6	-7%
COc1cc(C(=O)NCC(=O)N/N=C/c2ccco2)cc(OC)c1OC	-9	-1	-17	-4.3	-0.9%	3	6%
Cc1cc(C)c(S(=O)(=O)c2ccccc2F)c(=O)[nH]1	6	-7	-6	-4.6	0.4%	6	23%
CCCC(=O)Nc1cccc(NC(=O)c2ccc([N+](=O)[O-])cc2Cl)c1	-24	-3	16	8.4	0.7%	-6	0%
CC1CCN(Cc2nc(Cl)c3c4c(sc3n2)CCC4)CC1	-9	x	-4	-2.5	-0.1%	-14	8%
CN(C)C(=O)CCc1nc2sc3c(c2c(=O)[nH]1)CCCC3	28	4	-23	-3.4	1.1%	-2	14%
CCC(C)N(C(=O)CCC(=O)Nc1cc(C)on1)C(C(=O)NC(C)(C)C)c1ccccc1Cl (stereo not given)	-3	0	-6	-6.0	3.8%	-12	23%
Cc1cnc(=O)[nH]c1SCC(=O)c1ccc(F)cc1	2	-13	-23	5.0	2.7%	2	14µM*
O=C(CNc1cccc2ccccc12)N/N=C/c1ccc(OC(=O)/C=C/c2ccco2)cc1	-2	-79*	21	6.9	1.0%	u	-1%
Cc1cccc(CCNC(=O)C2CCC(CNc3c(N4CCCC4)c(=O)c3=O)CC2)c1 (stereo not given)	-4	0	-9	-5.4	0.8%	-8	1%
Oc1[nH]c2c(Cl)cc(Cl)cc2c1N=NC(=S)NCC1CCCO1 (stereo not given)	-5	1	-5	-1.4	19%	-23	17%
COc1ccc(NC(=O)Nc2c(SC)nsc2SC)cc1	2	x	-4	u	0.2%	1	8%
CN(C)C(=O)c1ccccc1NC(=O)Cc1cccc2ccccc12	0	10	-6	-6.2	-0.9%	-3	8%
Cc1cc(/C(N)=N/OC(=O)Nc2ccccc2)no1	x	7	-12	-5.2	0.7%	32	4%
CCCCNC(=O)CN1C(=O)NC2(CCOc3ccccc32)C1=O (stereo not given)	16	9	8	1.3	5.1%	22	9%
O=C(/C=C/c1ccc(F)cc1)NC(=S)Nc1ccccc1O	16	-18	-9	-3.4	0.2%	-1	-16%
CCSc1nc2ccccc2c(=O)n1CCc1ccc(OC)c(OC)c1	7	-1	6	5.1	1.0%	-6	u
COc1ccccc1N(C)S(=O)(=O)c1ccc(C(=O)Nc2cc(F)ccc2C)cc1	x	8	-9	1.1	0.8%	10	x
Fc1ccc2cc(-c3cccnc3)ncc2c1	x	x	-8	1.9	-0.6%	1	x
CCN(C(=O)COC(=O)C1CCN(S(=O)(=O)c2c(Cl)cccc2Cl)CC1)C1CCCCC1	2	-1	-5	2.3	-0.5%	4	5%
CC(C)(C)C(=O)Nc1nnc(SCC(=O)NC2CC2)s1	2	5	-3	-3.8	6.2%	-2	13%
O=C(Nc1cc(=O)[nH]c2ncnn12)c1ccccc1F	-3	x	-17	-5.9	-0.1%	-3	-16%
CCCCN(C(=O)c1sc2nc3n(c(=O)c2c1C)CCC3)c1c(N)n(CC(C)C)c(=O)[nH]c1=O	12	7	17	-4.1	-0.1%	-1	x
O=C(NCCc1c[nH]c2ccccc12)c1ccc2nc[nH]c2c1	23	-7	4	5.2	0.3%	-15	x
COc1cc2c(cc1OC)C(c1cc([N+](=O)[O-])ccc1O)NCC2 (stereo not given)	1	4	-7	-4.9	0.7%	-4	4%

Record cards, as listed above. Order of screens: TRPV1 PAM | CtBP-E1A blk | D2 PAM | D2 ag | PINK1 modulator | Six1-Eya2 inh | Sfp inh
`Oc1[nH]c2c(Cl)cc(Cl)cc2c1N=NC(=S)NCC1CCCO1` (stereo not given) is listed with -5 | 1 | -5 | -1.4 | 19% | -23 | 17%
`CCCCNC(=O)CN1C(=O)NC2(CCOc3ccccc32)C1=O` (stereo not given) is listed with 16 | 9 | 8 | 1.3 | 5.1% | 22 | 9%
`Cc1cnc(=O)[nH]c1SCC(=O)c1ccc(F)cc1` is listed with 2 | -13 | -23 | 5.0 | 2.7% | 2 | 14µM*
`CCCC(=O)Nc1cccc(NC(=O)c2ccc([N+](=O)[O-])cc2Cl)c1` is listed with -24 | -3 | 16 | 8.4 | 0.7% | -6 | 0%
`CCN(C(=O)COC(=O)C1CCN(S(=O)(=O)c2c(Cl)cccc2Cl)CC1)C1CCCCC1` is listed with 2 | -1 | -5 | 2.3 | -0.5% | 4 | 5%

Further structures follow.
SMILES	TRPV1 PAM	CtBP-E1A blk	D2 PAM	D2 ag	PINK1 modulator	Six1-Eya2 inh	Sfp inh
COc1ccc2sc(-c3ccc(N(C)C)cc3)c(C#CC(C)(C)O)c2c1	-4	15	-12	-4.0	9.9%	19	x
Cc1cccc(NC(=S)N/N=C/C(C)c2ccccc2)c1C (stereo not given)	5	7	-8	-4.0	1.3%	-3	79µM*
C/C(=N/NC(=O)c1nnn(-c2nonc2N)c1CSc1ccc(Cl)cc1)c1ccncc1	x	0	-8	-2.3	6.4%	2	x
Cc1ccc(-c2ccc(S(=O)(=O)N3CCCC3)cc2)cc1	-1	11	-4	9.4	0.1%	10	11%
OC[C@@H]1CN(Cc2cccs2)C[C@H](n2cnc3c(Nc4ccccc4)ncnc32)O1	x	-5	-2	-3.6	-0.5%	-5	x
Cc1nn(-c2ccccc2)c(Cl)c1C(=O)OCC(=O)N(C)c1c(N)n(Cc2ccccc2)c(=O)[nH]c1=O	3	1	-18	-0.8	1.4%	-1	x
CC(=O)N/C(=C/c1ccc2c(c1)OCO2)C(=O)NC(Cc1ccccc1)C(=O)O (stereo not given)	x	0	-6	-3.3	-1.1%	5	x
CN(C)Cc1c(C(=O)N/N=C/c2ccncc2)nnn1-c1nonc1N	5	-12	-5	-4.0	7.6%	9	7%
Cc1ccc(C)c(OCC(=O)OCC(=O)Nc2c(C)nn(-c3ccccc3)c2C)c1	-4	0	-19	-6.8	-1.0%	18	x
CCN(C(=O)CN(C)Cc1c(F)cccc1Cl)c1c(N)n(Cc2ccccc2)c(=O)[nH]c1=O	-5	-19	-5	-5.0	-0.6%	1	6%
COc1ccc(S(=O)(=O)/N=C2/C=CC(=O)C(C)=C2C)cc1	7	0	10	11	4.2%	17	79µM*
O=C1c2ccccc2S(=O)(=O)N1CCOc1ccc(F)cc1	-6	13	-8	-0.9	0.6%	11	1%
Cc1oc(-c2ccc(F)cc2)cc1-c1nn2c(-c3ccoc3C)nnc2s1	28	-28	-12	-1.7	2.6%	-21	40µM*
Cc1ccc(C)c(S(=O)(=O)NCc2ccc(C(=O)N3CCCCC3C)cc2)c1 (stereo not given)	4	-1	3	0.8	2.7%[38.3 µM]	-2	1%
CCCCOc1ccc(C(=O)OCC(=O)Nc2cc(C)c(C)cc2[N+](=O)[O-])cc1	-1	x	-6	-2.5	4.7%	9	-4%
CCOC(=O)c1sc2nccc(OC)c2c1N=CN(C)C	-15	10	-7	0.5	-0.8%	6	18%
CC(=O)Cn1nnc(-c2ccc(C(F)(F)F)cc2)n1	-15	x	-16	-1.9	-0.4%	16	-1%
OC[C@@H]1CN(Cc2ccc(Cl)cc2)C[C@H](n2cnc3c(N4CCOCC4)ncnc32)O1	x	3	-1	-1.8	-0.2%	1	x
CCNC(=O)COC(=O)c1cc(C)nc2ccccc12	4	4	4	-0.3	3.3%	7	-3%
CCCCCCn1cc(CN2CC(N3CCN(C4CCN(C)CC4)CC3)CS2(=O)=O)nn1 (stereo not given)	x	-1	x	x	1.8%	5	x
CCOc1ccc(N(CC(=O)NC2CCCC2)S(=O)(=O)c2ccccc2)cc1	-13	8	-2	6.4	0.0%	8	6%
CC(=O)Nc1cccc(-c2cc(NC=O)c3ncc(-c4ccc(C(C)=O)cc4)n3c2)c1	x	-11	15	12	1.0%	-7	x
O=C(O)C1CC=CCC1C(=O)Nc1ccc2c(c1)CCC2 (stereo not given)	-1	8	-4	-0.9	0.2%	1	13%
CCn1c(CNC(=O)c2ccco2)nnc1SCC(=O)Nc1ccccc1Cl	12	7	-4	1.7	2.2%	1	13%
Cn1c(C(=O)N2CCN(c3ccc([N+](=O)[O-])cc3)CC2)cc2c(=O)[nH]c3ccccc3c21	5	-6	-4	0.9	3.2%	-4	9%

Following part.
SMILES	TRPV1 PAM	CtBP-E1A blk	D2 PAM	D2 ag	PINK1 modulator	Six1-Eya2 inh	Sfp inh
Nn1c(SCC(=O)Nc2ccc3c(c2)OCCO3)nnc1-c1ccccn1	24	-27	-6	5.0	-0.4%	u	-8%
COc1ccc(NC(=O)CSc2nnc(-c3ccoc3C)n2CC2CCCO2)cc1 (stereo not given)	12	2	-6	-1.0	1.0%	-2	14%
COc1cc2[nH]c(C(=O)N3CC(C)OC(C)C3)cc2c(OC)c1OC (stereo not given)	3	-22	-5	-3.4	-1.0%	-11	11%
CCN1C(=O)C(O)(C2COC(C)(C)CC2=O)c2ccccc21 (stereo not given)	u	1	-4	-1.9	1.0%	1	11%
COc1ccc(C=O)cc1CSc1ncccc1C(=O)O	11	-1	-5	-3.4	-1.1%	-14	12%
O=C1ON=C(c2ccccc2[N+](=O)[O-])/C1=C/c1cccc([N+](=O)[O-])c1O	18	x	3	-2.6	1.9%	-1	x
COc1ccc(/C=C2\SC(=S)N(CCCC(=O)Nc3ccccc3C(=O)O)C2=O)cc1OC	-12	-9	12	1.8	0.4%	-1	12%
O=S(=O)(c1ccccc1F)N1CCC(c2nc3ccccc3[nH]2)CC1	-21	-4	-12	-2.3	1.3%	-1	5%
COc1cc(NC(=O)CCC(=O)OCCCC(F)(F)C(F)(F)F)nc(OC)n1	2	5	2	-0.2	2.3%	5	18%
O=C(Cc1ccc(S(=O)(=O)N2CCCC2)s1)Nc1nc2c(s1)CCCC2	-12	-9	7	0.1	1.4%	-5	u
Cc1ccc(CSC2=NCCN2S(=O)(=O)c2ccccc2)cc1	3	x	1	-3.1	-1.0%	2	4%
O=C(c1cn(Cc2ccccc2)nc1-c1ccccc1)N1CCN(c2ccccn2)CC1	3	-2	1	3.2	4.0%	-3	x
COc1ccccc1Cc1c(-c2ccccc2)nc2c(C)cc(Br)cn12	x	6	-6	-5.8	1.7%	3	x

Source: PubChem (National Center for Advancing Translational Sciences (NCATS))
